MT1-MMP act inh: inhibitors of human MT1-MMP activation; 360,000 compounds, 0.061% hits; GFP/RFP ratio change, % at 20 µM; P50281; HT1080 RFP-PRO-GFP cells, GFP/RFP ratio fluorescence, overnight; percent of plate control window, DMSO zero;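 active = GFP/RFP ratio change of at least 30% with cell ATP level not reduced by more than half and red fluorescence within 50% of control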; note: strong numbers were not always called active
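system = RFP-PRO-GFP reporter HT1080 cells | dosing = 20 µM single dose, 1% DMSO | timing = overnight cell settling, then overnight compound exposure, 37 °C, 5% CO2 | read-out basis = GFP/RFP fluorescence ratio | controls = DMSO and RFP-L50D-GFP cell wells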
Yeast UUG start: modulators of start codon recognition fidelity in yeast | 350,000 compounds, 0.13% hits | S. cerevisiae UUG-firefly luciferase reporter, luminescence/redox ratio | AID 602363 | activity score, % at 18.7 µM;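 active = replicate mean at a twofold rise or more, about +100% in these data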;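 note: firefly luciferase made from a UUG start codon reports start codon fidelity; reporter light over untreated wells divided by growth signal over untreated wells; some hits fall short of that in this replicate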
MT1-MMP act inh RFP: further read-out of MT1-MMP act inh, marked with its call; RFP signal change, %; measured here: RFP expression control read;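 0 = vehicle wells; hits needed this value within 50% of zero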
Active calls of the source: *; & = joins results of further samples.

`Cc1nn(C)c(C)c1/C=C(\C#N)S(=O)(=O)c1ccc(F)cc1` gave MT1-MMP act inh -3, Yeast UUG start -1 and MT1-MMP act inh RFP 4.
For O=C(NCc1cccs1)c1cc(S(=O)(=O)N2CCOCC2)ccc1N1CCCC1 the results were MT1-MMP act inh 5, Yeast UUG start -13 and MT1-MMP act inh RFP 4.
CCCCn1c(O)c2n(c1=O)Cc1ccccc1N=C2c1ccc(C)cc1 was read as MT1-MMP act inh -1, Yeast UUG start -8 and MT1-MMP act inh RFP -3.
Screening O=c1cc(SCc2ccc(Cl)cc2Cl)nc[nH]1 returned MT1-MMP act inh -3, Yeast UUG start -23 and MT1-MMP act inh RFP 1.
`O=C(OCCOc1ccccc1Cl)c1cc(S(=O)(=O)N2CCCCC2)ccc1N1CCOCC1` gave MT1-MMP act inh -8, Yeast UUG start -4 and MT1-MMP act inh RFP -27.
`O[C@H]1CN(Cc2cccs2)[C@@H](c2ccccc2)C[C@@H]1n1cc(-c2ccc(F)cc2)nn1` gave MT1-MMP act inh 1, Yeast UUG start -7 and MT1-MMP act inh RFP 3.
`O=c1ccn([C@@H]2O[C@H](CNCc3cccn3-c3ccncc3)[C@@H](O)[C@H]2O)c(=O)[nH]1` gave MT1-MMP act inh 1, Yeast UUG start -42 and MT1-MMP act inh RFP 3.
Screening O=C(COC(=O)c1cccc(Cl)c1)NC1CCS(=O)(=O)C1 (stereo unspecified) returned MT1-MMP act inh 1, Yeast UUG start -9 and MT1-MMP act inh RFP 2.
`CC(C)c1ccc(NC(=O)CCCN2C(=O)NC(C)(C)C2=O)cc1` gave MT1-MMP act inh -2, Yeast UUG start 0 and MT1-MMP act inh RFP 3.
For Cc1cc(Br)ccc1NC(=O)CN(C)C(=O)c1ccc2ccccc2n1 the results were MT1-MMP act inh -4, Yeast UUG start 0 and MT1-MMP act inh RFP 5.
For COc1ccccc1NS(=O)(=O)c1ccc(C)c(C(=O)N2CCCC2)c1 the results were MT1-MMP act inh 1, Yeast UUG start -1 and MT1-MMP act inh RFP 2.
Screening Cc1ccc(S(=O)(=O)NCc2ccccc2)cc1C(=O)N1CCN(S(=O)(=O)c2ccccc2F)CC1 returned MT1-MMP act inh -3, Yeast UUG start -9 and MT1-MMP act inh RFP 1.
`Cc1ccc(S(=O)(=O)N2CCOCC2)cc1NC(=O)COC(=O)c1ccc(Br)o1` gave MT1-MMP act inh 4, Yeast UUG start -16 and MT1-MMP act inh RFP 7.
O=C(CCc1ccc(O)cc1)NN=Cc1ccc2c(c1)OCO2 was read as MT1-MMP act inh 3, Yeast UUG start -6 and MT1-MMP act inh RFP 0.
Screening COc1cc(C(=O)NNC(=O)c2n[nH]c3ccccc23)cc(OC)c1OC returned MT1-MMP act inh 5, Yeast UUG start -15 and MT1-MMP act inh RFP 3.
O=C(c1ccc(N2CCOCC2)c([N+](=O)[O-])c1)N1CCN(c2ccccc2)CC1 was read as MT1-MMP act inh 3, Yeast UUG start -12 and MT1-MMP act inh RFP 1.
For CCCS(=O)(=O)NC(=O)C1(C)CCN(C(=O)Cc2cccc3ccccc23)C1 (stereo unspecified) the results were MT1-MMP act inh 3, Yeast UUG start -19 and MT1-MMP act inh RFP 6.
Cc1ccc2c(c1)C(=O)CC(c1ccccc1)S2 (stereo unspecified) was read as MT1-MMP act inh 1, Yeast UUG start -33 and MT1-MMP act inh RFP 1.
COC(=O)C1=COC(OC2OC(CO)C(O)C(O)C2O)C2C(C)CC(=O)C12 (stereo unspecified) was read as MT1-MMP act inh -1, Yeast UUG start 0 and MT1-MMP act inh RFP 2.
`COc1ccc(OC)c(NC(=O)CN2C(=O)NC3(CCCc4ccccc43)C2=O)c1` (stereo unspecified) gave MT1-MMP act inh 3, Yeast UUG start 14 and MT1-MMP act inh RFP 5.
O=C(NCCC(=O)N1CCCCCCC1)c1ccc(Br)cc1 was read as MT1-MMP act inh -2, Yeast UUG start -1 and MT1-MMP act inh RFP -4.
COc1ccc(C2(C)NC(=O)N(CC(=O)N3CCc4ccccc43)C2=O)cc1OC (stereo unspecified) was read as MT1-MMP act inh 1, Yeast UUG start -1 and MT1-MMP act inh RFP 0.
For CCC(C)C(NC(=O)c1ccccc1)C(=O)Nc1ccc(S(=O)(=O)Nc2cc(C)nc(C)n2)cc1 (stereo unspecified) the results were MT1-MMP act inh 7, Yeast UUG start 3 and MT1-MMP act inh RFP 1.
For CCCOc1ccc(F)cc1-c1cc(C(=O)NCc2cccc(Cl)c2)[nH]n1 the results were MT1-MMP act inh -1, Yeast UUG start -32 and MT1-MMP act inh RFP -2.
For CC1(C(=O)O)CCCN(C(=O)/C=C/c2ccccc2)C1 (stereo unspecified) the results were MT1-MMP act inh 0, Yeast UUG start -15 and MT1-MMP act inh RFP -2.
Screening NC(c1cccc(F)c1)c1nc(-c2ccc(Cl)cc2)cs1 (stereo unspecified) returned MT1-MMP act inh -1, Yeast UUG start -1 and MT1-MMP act inh RFP -6.
Cc1ccc(NC(=O)C/C(N)=N/OC(=O)Nc2cccc(Cl)c2)cc1 was read as MT1-MMP act inh 0, Yeast UUG start -11 and MT1-MMP act inh RFP 1.
`CC(C)C(NC(=O)c1cccc(S(=O)(=O)N2CCOCC2)c1)C(=O)NCc1ccc(Cl)cc1` (stereo unspecified) gave MT1-MMP act inh -1, Yeast UUG start -14 and MT1-MMP act inh RFP -4.
Screening CCc1ccc(CCC(=O)N2CCN(S(=O)(=O)c3sc(C(=O)O)c(C)c3C(=O)O)CC2)cc1 returned MT1-MMP act inh 1, Yeast UUG start 1 and MT1-MMP act inh RFP 3.
For CCCCNCCS(=O)(=O)NCc1ccccc1 the results were MT1-MMP act inh 1, Yeast UUG start -9 and MT1-MMP act inh RFP 4.
`COc1cccc(CNS(=O)(=O)c2ccccc2Br)c1OC` gave MT1-MMP act inh 1, Yeast UUG start 2 and MT1-MMP act inh RFP 2.
Screening CN(Cc1nc2ccccc2c(=O)[nH]1)C(=O)c1ccc(NC(=O)CSc2nnnn2C)cc1 returned MT1-MMP act inh -3, Yeast UUG start -12 and MT1-MMP act inh RFP -2.
O=c1[nH]cnc2c1nnn2C1OC(CO)C(O)C1O (stereo unspecified) was read as MT1-MMP act inh -15, Yeast UUG start -1 and MT1-MMP act inh RFP -2.
Cc1cccc(OC(C)C(=O)OCC(=O)Nc2sccc2C(N)=O)c1 (stereo unspecified) was read as MT1-MMP act inh 2, Yeast UUG start -1 and MT1-MMP act inh RFP 0.
`CSC[C@H]1CN(c2ccccc2)C(=O)[C@@H]1CC(=O)Nc1ccccc1` gave MT1-MMP act inh 0, Yeast UUG start -4 and MT1-MMP act inh RFP 3.
For COc1ccc([N+](=O)[O-])cc1NC(=O)C(C)OC(=O)CC1CCCC1 (stereo unspecified) the results were MT1-MMP act inh -2, Yeast UUG start 5 and MT1-MMP act inh RFP -1.
CC1CC(C)CN(C(=O)COC(=O)c2nccnc2N)C1 (stereo unspecified) was read as MT1-MMP act inh 2, Yeast UUG start -7 and MT1-MMP act inh RFP 1.
Screening CCCCC(=O)N(C)c1c(CC)nc2c(OCC=C(C)C)cccn12 returned MT1-MMP act inh 3, Yeast UUG start -38 and MT1-MMP act inh RFP -2.
For C[C@H](CO)N1C[C@H](C)[C@@H](CN(C)Cc2ccc3c(c2)OCCN3C)OCc2cnnn2CCCC1=O the results were MT1-MMP act inh -2, Yeast UUG start -8&-2 and MT1-MMP act inh RFP 5.
Screening O=C1[C@H]2[C@@H](c3ccc(C(F)(F)F)cc3)N[C@]3(CCCN(Cc4ccc(Br)cc4)C3=O)[C@H]2C(=O)N1Cc1ccccc1 returned MT1-MMP act inh -1, Yeast UUG start -18 and MT1-MMP act inh RFP -18.
Cc1ccc([C@H]2C[C@H](O)[C@@H](n3cc(C4CC4)nn3)CN2CC2CCCCC2)cc1 was read as MT1-MMP act inh 3, Yeast UUG start -1 and MT1-MMP act inh RFP 6.
`Cc1c(C)c2cccnc2c2ncccc12` gave MT1-MMP act inh 11, Yeast UUG start -52 and MT1-MMP act inh RFP -12.
`COc1ccc(C(=O)NCC(=O)OCc2ccc(Cl)cc2Cl)cc1OC` gave MT1-MMP act inh -1, Yeast UUG start -14 and MT1-MMP act inh RFP 0.
Screening Nc1c(N(CCC2=CCCCC2)C(=O)c2ccccc2F)c(=O)[nH]c(=O)n1Cc1ccccc1 returned MT1-MMP act inh -4, Yeast UUG start -37 and MT1-MMP act inh RFP -3.
For CC[C@@H](C)[C@@H]1CN([C@@H](CN2CCC[C@H]2CN2C(N)=NC[C@H]2C(C)C)C(C)C)C(=N)N1CCc1ccc(Cl)c(Cl)c1 the results were MT1-MMP act inh 1, Yeast UUG start 0 and MT1-MMP act inh RFP 1.
O=C(COC(=O)Cc1ccc(F)cc1)NC1CCCCCC1 was read as MT1-MMP act inh 5, Yeast UUG start 5 and MT1-MMP act inh RFP 4.
O=C(Nc1c(-c2ccccc2)[nH][nH]c1=O)c1ccc(Br)cc1 was read as MT1-MMP act inh 1, Yeast UUG start -12 and MT1-MMP act inh RFP 4.
O=C(NCC1COc2ccccc2O1)C1CCN(S(=O)(=O)c2ccc(Cl)cc2)CC1 (stereo unspecified) was read as MT1-MMP act inh 4, Yeast UUG start 4 and MT1-MMP act inh RFP -3.
Screening CC1(c2cccc(Br)c2)NC(=O)N(CC(=O)Nc2ccc(N3CCCCC3)cc2)C1=O (stereo unspecified) returned MT1-MMP act inh 5, Yeast UUG start -9 and MT1-MMP act inh RFP -1.
`CCOC(=O)C1CCCN(C(=O)c2cccc(S(=O)(=O)N(C)c3ccc(C)cc3)c2)C1` (stereo unspecified) gave MT1-MMP act inh 3, Yeast UUG start -1 and MT1-MMP act inh RFP -2.
Screening CCOC(=O)c1c(C)[nH]c(C(=O)OCC(=O)N(CC(C)C)C2CCS(=O)(=O)C2)c1C (stereo unspecified) returned MT1-MMP act inh 0, Yeast UUG start -36 and MT1-MMP act inh RFP 1.
Screening CCOC(=O)c1coc(C(=O)OCC)c1C(=O)OCC returned MT1-MMP act inh 3, Yeast UUG start 1 and MT1-MMP act inh RFP 6.
For Cc1nc2c(OCc3cccc(Cl)c3)cccn2c1N(C)CC1CC1 the results were MT1-MMP act inh 8, Yeast UUG start -22 and MT1-MMP act inh RFP -20.
COC(=O)c1ccc(CNC(=O)CSC(C)C(=O)Nc2cc(C)on2)cc1 (stereo unspecified) was read as MT1-MMP act inh 4, Yeast UUG start -7 and MT1-MMP act inh RFP 3.
`CCOC(=O)C(=CNc1ccc(N2CCCCC2)c(S(=O)(=O)Nc2ccccc2OC)c1)C(=O)OCC` gave MT1-MMP act inh -4, Yeast UUG start -10 and MT1-MMP act inh RFP -8.
CCCCNC(=O)C(C#N)c1nc2ccccc2nc1N1CCN(Cc2ccc3c(c2)OCO3)CC1 (stereo unspecified) was read as MT1-MMP act inh -4, Yeast UUG start -14 and MT1-MMP act inh RFP 3.
`CC1(C(=O)NS(=O)(=O)C2CC2)CCCN(C(=O)c2ccc(F)cc2Cl)C1` (stereo unspecified) gave MT1-MMP act inh 0, Yeast UUG start -3 and MT1-MMP act inh RFP 6.
CC(Sc1nnc(-c2ccccc2F)n1C1CC1)C(=O)N1CCCC1 (stereo unspecified) was read as MT1-MMP act inh 0, Yeast UUG start -12 and MT1-MMP act inh RFP 3.
`CN(CC(=O)Nc1ccc(F)cc1)C(=O)COC(=O)c1cc(Br)c(Br)s1` gave MT1-MMP act inh 2, Yeast UUG start -4 and MT1-MMP act inh RFP 3.
Screening COc1ccccc1C(=O)NNC(=O)CN(C)S(=O)(=O)c1ccc(Cl)cc1 returned MT1-MMP act inh 4, Yeast UUG start -7 and MT1-MMP act inh RFP -2.
Nc1ccc2c(c1)C(=O)c1ccc(Cl)cc1-2 was read as MT1-MMP act inh 1, Yeast UUG start -9 and MT1-MMP act inh RFP -1.
COC(=O)c1ccccc1NN=Nc1ccccc1[N+](=O)[O-] was read as MT1-MMP act inh 3, Yeast UUG start -13 and MT1-MMP act inh RFP -1.
Screening O=C(COC(=O)c1ccc(O)cc1O)Nc1ccc2c(c1)OCCO2 returned MT1-MMP act inh -5, Yeast UUG start -15 and MT1-MMP act inh RFP -7.

8 compounds out of the list, sorted by length of the SMILES, high to low.
`CCOC(=O)C1CCCN(C(=O)c2cccc(S(=O)(=O)N(C)c3ccc(C)cc3)c2)C1` (stereo unspecified) gave MT1-MMP act inh 3, Yeast UUG start -1 and MT1-MMP act inh RFP -2.
CCCCNC(=O)C(C#N)c1nc2ccccc2nc1N1CCN(Cc2ccc3c(c2)OCO3)CC1 (stereo unspecified) was read as MT1-MMP act inh -4, Yeast UUG start -14 and MT1-MMP act inh RFP 3.
Screening CC1(c2cccc(Br)c2)NC(=O)N(CC(=O)Nc2ccc(N3CCCCC3)cc2)C1=O (stereo unspecified) returned MT1-MMP act inh 5, Yeast UUG start -9 and MT1-MMP act inh RFP -1.
`CC1(C(=O)NS(=O)(=O)C2CC2)CCCN(C(=O)c2ccc(F)cc2Cl)C1` (stereo unspecified) gave MT1-MMP act inh 0, Yeast UUG start -3 and MT1-MMP act inh RFP 6.
`CN(CC(=O)Nc1ccc(F)cc1)C(=O)COC(=O)c1cc(Br)c(Br)s1` gave MT1-MMP act inh 2, Yeast UUG start -4 and MT1-MMP act inh RFP 3.
Screening O=C(COC(=O)c1ccc(O)cc1O)Nc1ccc2c(c1)OCCO2 returned MT1-MMP act inh -5, Yeast UUG start -15 and MT1-MMP act inh RFP -7.
For Cc1nc2c(OCc3cccc(Cl)c3)cccn2c1N(C)CC1CC1 the results were MT1-MMP act inh 8, Yeast UUG start -22 and MT1-MMP act inh RFP -20.
Screening CCOC(=O)c1coc(C(=O)OCC)c1C(=O)OCC returned MT1-MMP act inh 3, Yeast UUG start 1 and MT1-MMP act inh RFP 6.

Not all compounds are listed (hit frequency here may not be typical).
